# Rango release inh: qHTS Assay for Inhibitors of RanGTP induced Rango (Ran-regulated importin-beta cargo) - Importin beta complex dissociation | Biochemical FRET Rango-importin beta, RanGTP-induced dissociation | 0.071% of 340,000 active | AID 540253, 2011 | Snurportin-1 (Homo sapiens) + GTP-binding nuclear protein Ran (Homo sapiens) + Importin … | Potency, µM (doses to about 46.1 µM), without a hit: at the highest dose activity change, negative = inhibition; active means falling FRET ratio curve, often poorly fitted, with flat reads before Ran was added; inconclusive means other falling curves, or compound fluorescence or quenching; inactive means flat or rising ratio curve;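 further: potency means the concentration at half of the fitted maximal effect; % of control where 0% means no effect; nearly all actives have a fitted effect of over 45% in size; -100% = wells without RanGTP and RCC1; the record marks most hits as doubtful in a second field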
#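 Quantitative HTS using a FRET biosensor: 0.1 uM Rango, 0.25 uM importin beta, 0.6 uM Ran, 2 mM GTP, 0.2 uM RCC1 final, PBS with DTT, Tween-20 and BSA. Post-read taken 45 min after Ran addition.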
# GLA inh pH 4.5: qHTS Assay for Inhibitors of Human alpha-Galactosidase at pH 4.5; activity change, negative = inhibition, % at 105 µM; 230,000 tested, under 10 active; purified enzyme, 4-MU-alpha-Gal fluorescence, pH 4.5; Alpha-galactosidase A (Homo sapiens), P06280; AID 1467, 2008; inconclusive = small, poorly fitted or top-dose-only inhibition, or a rising curve; inactive = flat fitted curve, though single readings scatter; no compound was filed as active;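 further: 0% = full activity with enzyme and -100% = basal without enzyme; dose as in the result columns while the protocol names 77 µM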
# Target sequence (P06280 whole entry, looked up): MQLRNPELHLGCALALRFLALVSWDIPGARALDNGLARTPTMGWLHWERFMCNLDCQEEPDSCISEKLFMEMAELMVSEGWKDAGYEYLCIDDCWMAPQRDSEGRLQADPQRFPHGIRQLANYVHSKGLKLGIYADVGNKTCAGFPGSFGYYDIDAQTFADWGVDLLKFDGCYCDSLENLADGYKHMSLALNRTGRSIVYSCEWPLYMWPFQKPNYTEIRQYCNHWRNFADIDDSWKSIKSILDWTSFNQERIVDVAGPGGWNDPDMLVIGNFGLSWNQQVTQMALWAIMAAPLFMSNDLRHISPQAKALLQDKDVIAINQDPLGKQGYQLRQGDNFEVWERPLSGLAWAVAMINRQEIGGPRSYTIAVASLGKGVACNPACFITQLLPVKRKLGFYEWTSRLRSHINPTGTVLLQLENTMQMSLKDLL
# miR-21 reporter: qHTS Assay for Modulators of miRNAs and/orActivators of miR-21; HeLa miR-21 FLuc reporter, luciferase, 48 h; Potency, µM (series often up to 38.3 µM), for inactives: top-dose reporter change, positive = more light; 340,000 tested, under 10 active; AID 2288, 2010; active = well fitted rising curve with a large enough effect; inconclusive = small, poorly fitted or top-dose-only effect; inactive = no such curve, though single readings can be large or run the other way;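 further: % of control where 0% means no effect; miR-21 action dims this reporter so a rising signal means less miR-21 action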
#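 HeLa miR-21-FLuc reporter line, endogenous miR-21; 2000 cells/well in DMEM/10% FBS; compound titration up to ~40uM final, 48 h, 37 degree Celsius; luciferase detection reagent, 15 min lysis, CCD luminescence.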
# Rango complex inh: qHTS Assay for Inhibitors of Rango (Ran-regulated importin-beta cargo) - Importin beta complex formation | Potency, µM (top dose mostly 92.2 µM), for inactives: at the top dose inhibition of complex formation | 0.031% of 340,000 active | Rango CFP/YFP FRET sensor + importin beta, 45 min | AID 540263, 2011; active = rising FRET ratio curve, often small or poorly fitted; inconclusive = mostly compound fluorescence or quenching in the first reads; inactive = flat curves in all reads;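 further: potency means the concentration at half of the fitted maximal effect; 0% = DMSO wells and 100% = buffer wells lacking importin beta; nearly all actives have a fitted effect of over 15% in size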
#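 FRET biosensor Rango (snurportin 1 IBB between N-terminal EYFP and C-terminal Cerulean), 50 nM in PBS/1 mM DTT/0.02% Tween-20/0.1% BSA, preincubated 5 min RT with compound; 0.125 microM importin beta added, 45 min RT, CFP/YFP FRET ratio read.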
# Starred values were filed as active, the others as inactive; ? = inconclusive; / = no result given; & = joins results of further samples; [ ] = dose if it differs, or a comment. Some of the compounds tested; the hit share may differ from the screen's.
1) N#Cc1ccc(CO/N=C/c2ccccc2)cc1
2) COc1cccc(CNC(=O)c2ccc(NC(=O)C3CCCO3)cc2)c1 (stereo unspecified)
3) COc1ccc(/C=C(/CC(=O)NCc2ccc(Cl)cc2)c2nc3ccccc3s2)cc1
4) COc1ccccc1CN1C[C@@H]2C[C@@H](c3cccc(C)n3)N3CCC[C@@]23C1=O
5) COc1ccc(OCC(=O)NCc2n[nH]c(=O)c3ccccc23)cc1
6) Cc1ccccc1-n1c(SCC(=O)c2cc(C)n(C)c2C)nnc1-c1ccncc1
7) O=C(CN1C(=O)NC2NC(=O)NC21)N/N=C/c1ccccc1O (stereo unspecified)
8) COC(=O)COc1ccc(C)cc1-n1nc2ccccc2n1
9) CCOC(CNC(=O)CCc1c(C)nc2ncnn2c1C)OCC
10) O=C(O)c1cccc(OCc2ccccc2Cl)c1

entry no.,1,2,3,4,5,6,7,8,9,10
Rango release inh,-1%,8%,5%,-7%,-1%,-6%,-7%,8%,7%,1%
GLA inh pH 4.5,-7,-6,?,1,/,5,3,-2,1,0
miR-21 reporter,-41%,-18%,-8%,-1%,/,11%,2%,4%,4%,-51%
Rango complex inh,1.4%,-0.9%,-2.7%,-3.2%,-0.5%,0.3%,?,1.0%,0.0%,-2.1%

# 3 entries already listed, sorted by number of heavy atoms, highest first.
9) CCOC(CNC(=O)CCc1c(C)nc2ncnn2c1C)OCC
7) O=C(CN1C(=O)NC2NC(=O)NC21)N/N=C/c1ccccc1O (stereo unspecified)
10) O=C(O)c1cccc(OCc2ccccc2Cl)c1

entry no.,9,7,10
Rango release inh,7%,-7%,1%
GLA inh pH 4.5,1,3,0
miR-21 reporter,4%,2%,-51%
Rango complex inh,0.0%,?,-2.1%

# Other compounds follow:
11) Cc1ccc(CNC(=O)CSc2ccc(-c3cccs3)nn2)cc1
12) Cc1ccc(N(C(=O)c2csnn2)C(C(=O)NC(C)(C)C)c2cccnc2)cc1C (stereo unspecified)
13) Cc1ccc(NC(=O)CC(C)S(=O)(=O)c2ccc3c(c2)NC(=O)CO3)cc1C (stereo unspecified)
14) COc1ccccc1-n1c(SCC(=O)NC2CCS(=O)(=O)C2)nc2cc([N+](=O)[O-])ccc21 (stereo unspecified)
15) COc1cc(OC)c2c(-c3cccc(-c4ccc(O)cc4)c3)cc(=O)oc2c1
16) COc1ccc(/C(N)=N/OC(=O)c2ccc(OC)c([N+](=O)[O-])c2)cc1OC
17) N#Cc1ccc(NC(=O)COC(=O)CSc2nnc(-c3ccc(Cl)cc3)o2)cc1
18) O=C(Nc1ncc(Cc2ccccc2)s1)C1CCCO1 (stereo unspecified)
19) COc1cccc(NC(=O)C2CCC(CNC(=O)[C@@H]3Cc4ccccc4CN3)CC2)c1 (stereo partly specified)
20) COc1ccc(-n2cc(-c3ccccc3)c3c(NCCCN4CCOCC4)ncnc32)cc1

entry no.,11,12,13,14,15,16,17,18,19,20
Rango release inh,-11%,-1%,-6%,-3%,14%,-11%,9%,-4%,6%,12%
GLA inh pH 4.5,5,2,/,-23,-4,-14,-7,-1,/,-3[21.1 µM]
miR-21 reporter,-2%,0%,6%&7%,-2%,/,-1%,-7%,-38%,-7%,12%
Rango complex inh,-3.1%,-4.0%,-1.4%,0.0%,0.9%,-1.3%,-2.6%,-4.6%,0.4%,?

21) O=C(COc1cccc2cccnc12)N1CCc2ccccc2C1
22) COc1ccc2c(c1)c(C(C)=O)c(C)n2C
23) CC(C)c1cc(-c2cc(-c3ccc(Cl)cc3)on2)nc(NCC2CC2)n1
24) C#CCN1C=CC(=O)[C@@H](OC(=O)Nc2ccc(OC)cc2)[C@H]1c1ccccc1Br
25) COc1cccc(=O)c2c(C)n(-c3ccc(C(=O)O)cc3)c(C)c12
26) O=C(O)c1ccc(Cl)c(NCc2cccs2)c1
27) Cc1cccc2cc3c(nc12)-c1ccccc1C3=O
28) c1ccc(COc2ccc(OCCCn3cncn3)cc2)cc1
29) Cc1ccc(C(=O)/C=C/Nc2ccccn2)cc1
30) Cc1ccc(-c2csc(NNC(=O)c3ccccc3)n2)cc1

entry no.,21,22,23,24,25,26,27,28,29,30
Rango release inh,-9%,2%,13%,15%,?,-7%,-12%,-5%,-15%,4%
GLA inh pH 4.5,4,8,-10,/,6,/,/,4,/,-5
miR-21 reporter,-17%,1%,3%,/,0%,0%,-41%,-21%,/,19%
Rango complex inh,-1.6%,-0.1%,0.4%,-3.2%,?,1.2%,0.6%,0.1%,-2.7%,8.9%

31) CCOC(=O)c1c(CC(C)C)csc1N
32) O=[N+]([O-])c1cc(C(F)(F)F)cc([N+](=O)[O-])c1NCc1cccnc1
33) CN1CCC(OC(=O)c2ccccc2Cl)CC1
34) Cc1ccc(OCc2cc(C(=O)NC(C)Cc3cccnc3)no2)cc1C (stereo unspecified)
35) CCc1nc(SCC(=O)Nc2cc(C)on2)c2c(=O)n(C)c(=O)n(C)c2n1
36) CCC(=O)Nc1ccc(NC(=O)CSc2nnc(-c3ccco3)n2CC)cc1
37) CC(C)CCC(C)NC(=O)Cc1ccc(S(=O)(=O)N2CCOCC2)s1 (stereo unspecified)
38) COc1cccc(CN2CCNC(=O)C2CC(=O)NCCc2ccccn2)c1 (stereo unspecified)
39) COc1ccc(C)cc1NC(=O)NNC(=O)c1ccoc1C
40) CNc1nc(C)nc(N/N=C/c2ccccc2)n1

entry no.,31,32,33,34,35,36,37,38,39,40
Rango release inh,-4%,10%,30%,-15%,15%,?,-2%,?,-3%,-4%
GLA inh pH 4.5,-20,-14,6,/,10,/,/,-3,/,3
miR-21 reporter,1%,-2%,-5%,-28%,1%,8%,-3%,-7%,-9%,-28%
Rango complex inh,-0.9%,2.0%,-0.7%,1.6%,2.0%,-1.2%,-1.8%,?,15%,-0.9%

# 3 entries picked at random from the list so far:
35) CCc1nc(SCC(=O)Nc2cc(C)on2)c2c(=O)n(C)c(=O)n(C)c2n1
36) CCC(=O)Nc1ccc(NC(=O)CSc2nnc(-c3ccco3)n2CC)cc1
37) CC(C)CCC(C)NC(=O)Cc1ccc(S(=O)(=O)N2CCOCC2)s1 (stereo unspecified)

entry no.,35,36,37
Rango release inh,15%,?,-2%
GLA inh pH 4.5,10,/,/
miR-21 reporter,1%,8%,-3%
Rango complex inh,2.0%,-1.2%,-1.8%

# Later entries.
41) CCOc1ccc(Br)cc1C1=NN(C(C)=O)C(c2ccc([N+](=O)[O-])s2)O1 (stereo unspecified)
42) O=C(Cn1ncc2c(=O)oc3ccccc3c21)N1CCc2ccccc2C1
43) CC1(/[N+]([O-])=C/c2ccc(F)cc2)CCCCC1=O (stereo unspecified)
44) O=C(COc1ccc2c3c(c(=O)oc2c1)CCC3)NC(Cc1ccc(Cl)cc1)C(=O)O (stereo unspecified)
45) CCOC(=O)C1CCN(c2c(NCc3ccc(C(=O)NC(C)CC)cc3)c(=O)c2=O)CC1 (stereo unspecified)
46) C[n+]1ccccc1Nc1cc([N+](=O)[O-])ccc1N
47) CCOCCOc1nc2c(c(=O)n(C)c(=O)n2C)n1Cc1ccc(C)cc1
48) COc1ccc(/C=N/NC(=O)c2ccc(NC(=O)C3CCCCC3)cc2)cc1O
49) Cc1onc(-c2ccccc2Cl)c1C(=O)Nc1ccc(F)c(F)c1
50) CN(C)S(=O)(=O)c1ccc(N2CCCC2)c(C(=O)NC2CCC(O)CC2)c1 (stereo unspecified)

entry no.,41,42,43,44,45,46,47,48,49,50
Rango release inh,-13%,14%,0%,-2%,-15%,-11%,-7%,7%,1%,-8%
GLA inh pH 4.5,/,-3,0,/,-8,/,-10,/,-2,/
miR-21 reporter,27%,1%,0%,-1%,-2%,-2%,3%,7%,9%,/
Rango complex inh,2.2%,1.5%,-0.3%,3.3%,-2.1%,-0.9%,0.1%,1.3%,3.2%,0.0%

51) CCN(CC)CCCNC(=O)CSc1nc(C)cc(C)n1
52) NC(=S)NN=C1CCCCCCCC1
53) NC(=S)NNc1cc(Cl)cc(Cl)c1
54) Nc1c(C(=O)NC2CCCC2)c2nc3ccccc3nc2n1/N=C/c1cccnc1
55) COc1ccc(S(=O)(=O)NCC2CCCN(C(=O)C=C(C)C)C2)cc1 (stereo unspecified)
56) CC(C)Cc1ccc(CN2CCCC(NC(=O)c3ccnn3C)C2)cc1 (stereo unspecified)
57) COc1ccccc1NC(=O)C(C)OC(=O)CC1CCCCC1 (stereo unspecified)
58) C[C@H]1C=C(C(=O)NCc2nc3ccccc3[nH]2)O[C@@H](OCc2ccc(CO)cc2)C1
59) O=C(CC(C(=O)O)N1CCOCC1)Nc1ccc(Cl)cc1 (stereo unspecified)
60) CN(C)c1ccc(/C=N/NC(=O)c2cc(=O)[nH]c3ccccc23)cc1

entry no.,51,52,53,54,55,56,57,58,59,60
Rango release inh,21%,-1%,3%,?,-10%,14%,23%,4%,-7%,-4%
GLA inh pH 4.5,-8,/,10,/,-7,/,/,-18,6,2
miR-21 reporter,4%,/,20%,/,1%,19%,/,3%,-8%,0%
Rango complex inh,1.5%,11%,8.0%,?,-1.1%,-3.9%,-2.9%,-3.3%,10%,2.9%

61) O=C(CSc1nnc(NC(=O)c2c(F)cccc2F)s1)NCc1ccc(F)cc1
62) CCOC(=O)c1oc2cc(O)cc(C)c2c1C
63) O=C(CSc1nc(C2CC2)nc2ccccc12)Nc1ccccc1N1CCOCC1
64) O=C1CC[C@@H]2CC3(C[C@@H]4CCN1[C@H]24)Nc1cc(Cl)ccc1NC3=NC1CCCCC1 (stereo partly specified)
65) O=C(CSc1nnc(-c2ccccc2Br)o1)N1CCOCC1
66) CN(C)c1ccc2nsnc2c1[N+](=O)[O-]
67) Cc1cc(C)c(C(=O)COC(=O)C2CC3CCCC(C2)C3=O)c(C)c1 (stereo unspecified)
68) Cc1nnc(SCC(=O)NC2CCCC2)n1CCc1ccccc1
69) COc1cccc(CN2CC(C(=O)NCCc3ccc(C)s3)CCC2=O)c1 (stereo unspecified)
70) Cc1ccc(S(=O)(=O)N2CCN(CC(=O)NC3CCCc4ccccc43)CC2)c(C)c1 (stereo unspecified)

entry no.,61,62,63,64,65,66,67,68,69,70
Rango release inh,10%,11%,-29%,17%,-3%,16%,17%,-13%,2%,2%
GLA inh pH 4.5,/,/,-10,/,/,-15,/,/,/,-1
miR-21 reporter,/,/,3%,/,-52%,-5%,/,0%,-1%,2%
Rango complex inh,-1.5%,-5.1%,0.0%,-0.3%,-3.6%,?,2.2%,0.7%,3.1%,0.6%

71) O=C1CN(C(=O)COC(=O)CCS(=O)(=O)c2ccccc2)c2ccccc2N1
72) COc1ccc(NC(=O)Nc2nnc(C(C)C)s2)cc1
73) CCCCOC(=O)Nc1ccc(S(=O)(=O)Nc2nccs2)cc1
74) COc1ccc(C/C(C)=N/NC(=O)c2ccncc2)cc1
75) CC1=CN2C(=N)/C(=C/c3ccc(C)o3)C(=O)N=C2S1
76) Cn1c(C(=O)N(Cc2ccccc2)Cc2cccs2)cc2sccc21
77) COc1ccc(C(=O)N2CCN=C2c2ccccc2)cc1OC
78) COc1cc(OC)cc(C(=O)NNC(=O)CCc2nc3ccccc3c(=O)[nH]2)c1
79) CN(c1ccccc1)S(=O)(=O)c1cccc(C(=O)NCc2ccccc2)c1

entry no.,71,72,73,74,75,76,77,78,79
Rango release inh,-20%,-11%,11%,0%,0%,-5%,-4%,-5%,-3%
GLA inh pH 4.5,/,-8,4,0,-4,-13,-3,/,/
miR-21 reporter,/,-46%,-5%,0%,-16%,-8%,-7%,/,/
Rango complex inh,4.7%,0.7%,-1.0%,-1.2%,0.2%,0.5%,0.1%,0.4%,2.5%

# High-throughput results from PubChem BioAssay.
